# Screening data from PubChem BioAssay.
# Rango dissoc inh: inhibition of RanGTP-driven Rango-importin beta dissociation; AID 540253; O95149+P62826; Potency, µM (top dose mostly 46.1 µM), for the others: top-dose activity change, negative = inhibition; Biochemical FRET Rango-importin beta, RanGTP-induced dissociation; hit rate 0.071% among 340,000; active means falling FRET ratio curve, often poorly fitted, with flat reads before Ran was added; inconclusive means other falling curves, or compound fluorescence or quenching; inactive means flat or rising ratio curve;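 also: potency is read from the fitted curve at half-maximal effect; % of control where 0% means no effect; nearly all actives have a fitted effect of over 45% in size; -100% = wells without RanGTP and RCC1; the record marks most hits as doubtful in a second field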
#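 Recombinant Rango FRET biosensor (EYFP–snurportin 1 IBB–cerulean CFP10) at 0.1 uM premixed with 0.25 uM importin beta in PBS, 1 mM DTT, 0.02% Tween-20, 0.1% BSA. Compound added 5 min; RanGTP-RCC1 (0.6 uM Ran, 2 mM GTP, 0.2 uM RCC1) then triggers release, read at 45 min.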
# GLA inh pH 4.5: inhibitors of human alpha-galactosidase A at pH 4.5; purified enzyme, 4-MU-alpha-Gal fluorescence, pH 4.5; activity change, negative = inhibition, % at 105 µM; 230,000 tested, under 10 active; AID 1467; inconclusive = small, poorly fitted or top-dose-only inhibition, or a rising curve; inactive = flat fitted curve, though single readings scatter; no compound was filed as active;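 also: 0% = full activity with enzyme and -100% = basal without enzyme; dose as in the result columns while the protocol names 77 µM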
# miR-21 FLuc: miR-21 reporter, rising signal | HeLa miR-21 FLuc reporter, luciferase, 48 h | AID 2288 | Potency, µM (series often up to 38.3 µM), without a hit: at the highest dose reporter change, positive = more light | 340,000 tested, under 10 active; active = well fitted rising curve with a large enough effect; inconclusive = small, poorly fitted or top-dose-only effect; inactive = no such curve, though single readings can be large or run the other way;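 also: % of control where 0% means no effect; miR-21 action dims this reporter so a rising signal means less miR-21 action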
#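 Using DMEM plus 10% FBS, HeLa miR-21-FLuc cells are incubated with test compounds (final up to about 40uM) for 48 hours; firefly luciferase signal is then imaged following reagent-mediated lysis.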
# Rango complex inh: prevents formation of the Rango-importin beta complex; Rango CFP/YFP FRET sensor + importin beta, 45 min; Potency, µM (titrated, usually from 92.2 µM), for inactives: at the top dose inhibition of complex formation; hit rate 0.031% among 340,000; active = rising FRET ratio curve, often small or poorly fitted; inconclusive = mostly compound fluorescence or quenching in the first reads; inactive = flat curves in all reads;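 also: potency is read from the fitted curve at half-maximal effect; 0% = DMSO wells and 100% = buffer wells lacking importin beta; nearly all actives have a fitted effect of over 15% in size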
# Target sequence (Q14974 whole entry, looked up): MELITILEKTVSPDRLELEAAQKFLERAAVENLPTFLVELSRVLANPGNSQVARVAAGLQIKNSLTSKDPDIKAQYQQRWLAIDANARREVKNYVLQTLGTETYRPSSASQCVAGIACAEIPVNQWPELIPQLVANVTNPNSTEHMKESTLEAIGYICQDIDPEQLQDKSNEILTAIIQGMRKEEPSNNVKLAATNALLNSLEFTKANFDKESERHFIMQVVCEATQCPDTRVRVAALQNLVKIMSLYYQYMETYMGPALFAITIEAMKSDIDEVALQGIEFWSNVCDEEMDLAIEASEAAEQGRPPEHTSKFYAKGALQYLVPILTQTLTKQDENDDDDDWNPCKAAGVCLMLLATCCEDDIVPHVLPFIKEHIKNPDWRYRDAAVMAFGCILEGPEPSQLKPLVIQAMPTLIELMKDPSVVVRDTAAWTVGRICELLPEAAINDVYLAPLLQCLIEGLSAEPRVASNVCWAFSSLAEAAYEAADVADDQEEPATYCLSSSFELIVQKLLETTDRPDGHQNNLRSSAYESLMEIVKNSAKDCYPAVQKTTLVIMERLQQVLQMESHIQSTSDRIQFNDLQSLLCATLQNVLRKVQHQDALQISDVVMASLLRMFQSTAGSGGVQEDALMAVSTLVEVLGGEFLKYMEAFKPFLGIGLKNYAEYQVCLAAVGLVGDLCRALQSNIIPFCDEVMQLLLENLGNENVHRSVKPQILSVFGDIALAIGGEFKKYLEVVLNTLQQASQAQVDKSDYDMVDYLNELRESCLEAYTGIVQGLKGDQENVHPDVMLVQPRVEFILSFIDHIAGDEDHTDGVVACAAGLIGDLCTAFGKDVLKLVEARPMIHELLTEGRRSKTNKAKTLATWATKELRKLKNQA
#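 FRET biosensor Rango (snurportin 1 IBB between N-terminal EYFP and C-terminal Cerulean), 50 nM in PBS/1 mM DTT/0.02% Tween-20/0.1% BSA, preincubated 5 min RT with compound; 0.125 microM importin beta added, 45 min RT, CFP/YFP FRET ratio read.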
# An asterisk follows results filed as active; ? = inconclusive; · = not tested or not shown; & = joins results of further samples. The list is partial; count on the stated rates, not on these rows.
smiles	Rango dissoc inh	GLA inh pH 4.5	miR-21 FLuc	Rango complex inh
C/C(=C\c1ccc(C)o1)C(=O)c1c(C)cc(C)[nH]c1=O	-6%	-6	5%	?
O=C(CSCc1ccccc1Br)N/N=C/c1ccc2c(c1)OCO2	0%	-1	-17%	1.8%
COc1cc(C(=O)NCCCNc2nc3cc(C)cc(C)c3cc2C#N)cc(OC)c1OC	?	-1	-21%	?
CC(C)C(=O)NC(=S)Nc1ccccn1	-14%	6	-14%	0.4%
CCN(Cc1ccccc1)C(=O)CN1C(=S)NC(C)(C)CC1C (stereo not given)	-1%	-1	-8%	-1.3%
CN(C)C(=O)CSc1nc2ccc(N3C(=O)c4ccccc4C3=O)cc2s1	25%	-1	-1%	-1.5%
CC(C)(C)c1ccc(C(=O)OCC(=O)Nc2sc3c(c2C#N)CCC3)cc1	-9%	0	-3%	5.2%
C[C@@]12CCC=C[C@H]1[C@H](c1ccc(/C=C/c3ccccc3)cc1F)N(Cc1ccccc1)C2=O	1%	-5	4%	1.1%
COc1ccccc1OCc1ccc(C(=O)NCc2ccco2)o1	6%	-1	0%	-0.5%
CN(C)S(=O)(=O)c1ccc(C(=O)NCC(=O)N/N=C/c2cccs2)cc1	30%	2	0%	-0.9%
CCOC(=O)[C@@H]1[C@H]2COc3ccc(Br)cc3[C@@H]2N2C(=O)N(c3ccc(F)cc3)C(=O)[C@]12C	-6%	·	0%	0.3%
CC(SCc1ccccc1)C(=O)N/N=C/c1ccc2c(c1)OCO2 (stereo not given)	16%	-6	-12%	4.2%
COc1ccc(N2CCN(C(CNC(=O)C(=O)NC3CC3)c3ccco3)CC2)cc1 (stereo not given)	-5%	·	·	0.1%
Cc1ccccc1NC(=O)c1ccccc1NC(=O)c1ccco1	9%	-2	-5%	2.1%
CCN1CCN(CCCNC(=O)c2ccc3c(c2)N(Cc2ccc(C)cc2)CCS3)CC1	-15%	·	-12%	-1.5%

# (next part)
smiles	Rango dissoc inh	GLA inh pH 4.5	miR-21 FLuc	Rango complex inh
Nc1ccc(CCn2ccnc2)cc1	11%	·	-4%	3.2%
C[C@]12C(=O)N(c3ccc(Br)cc3)C(=O)N1[C@H]1c3ccccc3OC[C@@H]1[C@H]2c1ccccc1	-2%	·	·	-1.8%
CC1CCN(S(=O)(=O)N2CCCC(C(=O)NCc3ccc(F)cc3)C2)CC1 (stereo not given)	1%	·	5%	2.5%
CC(C)NC(=S)N/N=C/C1=CCC2CC1C2(C)C (stereo not given)	14%	9	17%	-0.9%
CC(=O)Nc1ccc(NC(=O)CSc2nnc(C)c(=O)n2N)cc1	-5%	-15	-10%	0.0%
COc1cccc(NC(=O)NC2CCCCCCC2)c1	-10%	·	-49%	5.7%
CCCc1cc(=O)[nH]c(SCCOc2ccc(OCC)cc2)n1	-7%	2	-11%	?
COc1cc(CC(=O)NCC(C)(C)N2CCOCC2)cc(OC)c1OC	-13%	·	-1%	9.0%
O=C1OCCC1Sc1nc2ccccc2c(=O)n1Cc1ccccc1 (stereo not given)	-8%	2	-1%	-2.7%
CCOC(=O)Nc1sc(=S)n(C)c1C	-2%	-4	-9%	-4.0%
O=P(Cc1ccncc1)(c1ccccc1)c1ccccc1	19%	0	-11%	-0.9%
CC/C(O)=C1\C(=O)CC(C)(C)CC1=NCCc1nc2ccccc2[nH]1	-9%	-9	9%	1.2%
CC1(C)SC(=Nc2ccccc2)N(S(=O)(=O)c2ccccc2)C1=O	14%	2	-2%	-2.7%
Cc1cc(C(=O)c2ccc3ccccc3c2)c(C)o1	0%	·	·	-2.9%
CC(NC(=O)c1cncc(Br)c1)c1ccc(S(N)(=O)=O)cc1 (stereo not given)	-12%	6	-1%	0.2%

# Remaining list, next part:
smiles	Rango dissoc inh	GLA inh pH 4.5	miR-21 FLuc	Rango complex inh
COc1ccc(CNC(=S)Nc2ccc(Br)cc2)cc1	-5%	·	13%	0.0%
CN(C)S(=O)(=O)c1ccc(Cl)c(C(=O)Nc2cccc([N+](=O)[O-])c2)c1	17%	-4	16%	-0.3%
O=C(CO/N=C/c1ccc(OC(F)F)cc1)NCc1cccs1	0%	-1	-10%	?
C=CCn1c(C)nnc1SCC(=O)Nc1nc(C)c(C(=O)N(C)C)s1	21%	·	0%	0.1%
COc1cc(-c2nnc(SCc3cccnc3)n2C)cc(OC)c1O	7%	-11	2%	-0.3%
CCOC(=O)c1ccc(NC(=O)c2nc[nH]c2C(=O)N[C@@H](C)C(=O)OC(C)(C)C)cc1	4%	-1	3%	1.0%
O=C(Cc1ccc(Br)cc1)OCC(=O)c1ccc[nH]1	2%	·	·	-0.5%
CCC1CCCCN1C(=O)CSc1nnc(CNC(=O)c2cc(OC)c(OC)c(OC)c2)o1 (stereo not given)	11%	-6	1%	-1.7%
O=C(NCc1ccc(F)cc1)c1cccc(S(=O)(=O)N2CCOCC2)c1	-2%	·	·	65µM*
CCOc1ccccc1NC(=O)C1C2CCC3C(CCC21)C3(Cl)Cl (stereo not given)	-12%	5	-1%	1.1%
CN(C)CCCOC(=O)c1cc2ccccc2o1	4%	-1	-2%	2.1%
CCOCCCN(C(=O)c1snc(C(N)=O)c1N)C(C(=O)NC1CCCC1)c1ccc(F)cc1 (stereo not given)	-23%	·	-3%	-0.1%
CCOC(=O)c1sc(=S)n(-c2ccccc2)c1C	-10%	-1	-5%	-3.9%
COCCn1c(=S)[nH]c2ncccc2c1=O	-14%	-6	0%	4.3%
COc1ccccc1CNC(=O)C1CCCCN1S(=O)(=O)c1ccccc1 (stereo not given)	-3%	·	6%	3.1%

# The final three records of the section before lead into the next:
smiles	Rango dissoc inh	GLA inh pH 4.5	miR-21 FLuc	Rango complex inh
CCOC(=O)c1sc(=S)n(-c2ccccc2)c1C	-10%	-1	-5%	-3.9%
COCCn1c(=S)[nH]c2ncccc2c1=O	-14%	-6	0%	4.3%
COc1ccccc1CNC(=O)C1CCCCN1S(=O)(=O)c1ccccc1 (stereo not given)	-3%	·	6%	3.1%
CCCCc1nnc(NC(=O)CSc2nc(O)c(-c3ccccc3)c(=O)[nH]2)s1	-23%	3	0%	-0.2%
CCCc1cc(=O)[nH]c(SCc2nc3ccccc3s2)n1	-17%	-7	-15%	-1.6%
COC(=O)c1ccc(Cn2nnc3c(=O)[nH]c(C4CCCN(S(=O)(=O)c5ccc(C)cc5)C4)nc32)cc1 (stereo not given)	-8%	·	-3%	-1.6%
O=C(NC1CCCCCC1)c1ccc(=O)n(Cc2ccccc2)n1	5%	3	3%	-0.2%
COc1ccc(N(C(=O)c2cccnc2)S(=O)(=O)c2cc(OC)ccc2OC)cc1	14%	·	1%	3.3%
Cc1onc(-c2c(F)cccc2Cl)c1C(=O)N1CCCC1	-6%	·	·	1.1%
O=C1c2c([N+](=O)[O-])cc([N+](=O)[O-])cc2S(=O)N1Cc1ccccc1 (stereo not given)	17%	11	1%	3.9%
CCCCn1nnc(NC(=O)c2ccc(-c3ccccc3)cc2)n1	3%	-7	-22%	0.0%
COc1ccc(-n2nc(C(N)=O)c(O)cc2=O)cc1	11%	10	4%	0.8%
Cc1cccc(OC2(c3ccccc3)OC(=O)c3ccccc32)c1C (stereo not given)	0%	-27	-1%	0.0%
Cc1ccc(N(Cc2cc3cccc(C)c3[nH]c2=O)S(=O)(=O)c2ccccc2)c(C)c1	-3%	·	-2%	3.2%
Cn1c(N)c(C(=O)COc2ccc(Cl)cc2Cl)c(=O)n(C)c1=O	-11%	3	3%	-0.2%
COc1cccc(/C=N/NC(=O)c2ccoc2C)c1	-23%	7	-48%	-3.0%
CN(CC(=O)Nc1ccc(F)cc1)C(=O)CSc1nccn1C	-8%	·	·	2.5%
CCOC(=O)C1CCN(c2nc3cc(OC)ccc3cc2C#N)CC1	-20%	4	-7%	0.5%

# (continued)
# Values run as follows: Rango dissoc inh | GLA inh pH 4.5 | miR-21 FLuc | Rango complex inh
- COc1ccc(Oc2cccc(Cl)c2CNC(=O)c2ccccc2C(=O)O)cc1
 : 37% | 2 | -1% | 2.9%
- COC(=O)CC1C(=O)NCCN1C(=S)Nc1cc(C)cc(C)c1 (stereo not given)
 : -12% | -5 | -5% | -0.2%
- CCN=c1scc(-c2ccco2)n1/N=C/c1ccc(O)cc1
 : -5% | -9 | -62% | -2.2%
- O=C(O)c1ccc(Cl)c(S(=O)(=O)Nc2ccc(OCc3ccccc3)cc2)c1
 : 10% | · | -21% | -0.6%
- CC(C)CN(CC(C)C)C(=O)c1cc(S(=O)(=O)N2CCCCC2)c[nH]1
 : -7% | · | -1% | -1.6%
- N#CC1(Nc2cccc(Cl)c2)CCCC1
 : -1% | · | · | -1.0%
- Cc1c([N+](=O)[O-])c(C/C=N/O)nn1C
 : -2% | 15 | -2% | -0.2%
- Cc1ccc(OC(C)C(=O)N(C)Cc2ccccc2)c([N+](=O)[O-])n1 (stereo not given)
 : 10% | · | -5% | -0.3%
- COc1ccccc1N1CCN(C(=O)CSc2nc3ccccc3nc2N2CCC(C)CC2)CC1
 : 2% | · | 8% | -2.5%
- COc1ccc(CN2CCN(Cc3ccc(C(F)(F)F)cc3)CC2)c(OC)c1
 : 3% | · | 17% | 0.2%

# Part of the list above, reduced to Rango complex inh, miR-21 FLuc and GLA inh pH 4.5:
SMILES	Rango complex inh	miR-21 FLuc	GLA inh pH 4.5
CC(C)CN(CC(C)C)C(=O)c1cc(S(=O)(=O)N2CCCCC2)c[nH]1	-1.6%	-1%	·
COc1ccccc1N1CCN(C(=O)CSc2nc3ccccc3nc2N2CCC(C)CC2)CC1	-2.5%	8%	·

# (next part)
# Values run as follows: Rango dissoc inh | GLA inh pH 4.5 | miR-21 FLuc | Rango complex inh
- Cc1cc(/C=c2\sc3nc4ccccc4n3c2=O)c(C)n1-c1ccc(C(=O)O)cc1
 : ? | -5 | -10% | ?
- C(=N\Nc1ccc2nncn2n1)/c1ccccn1
 : -18% | -11 | 16% | 0.5%
- COC(=O)Cn1nnc(N2CCOCC2)n1
 : -9% | 2 | -5% | -0.3%
- O=C(COC(=O)Cn1nnc2ccccc21)NC1CCCC1
 : 1% | · | 6% | 0.8%
- O=C(COc1ccc(C(=S)N2CCOCC2)cc1Cl)Nc1ccccc1Cl
 : 3% | 3 | -4% | -0.6%
- COc1cc(SC)ccc1C(=O)NNC(=O)c1cc(C)oc1C
 : -9% | · | · | -0.7%
- Nc1nc(SCC(=O)N2CCOCC2)[nH]c(=O)c1-c1ccccc1
 : -12% | 1 | 1% | -4.0%
- S=C(NCC1COc2ccccc2O1)Nc1ccc(Br)cc1 (stereo not given)
 : 2% | -7 | 1% | 1.7%
- CN(CCc1nc2ccc(Cl)cc2[nH]1)Cc1nc(CC2CC2)no1
 : -24% | -1 | 1% | ?
- CCOCCCNC(=O)C(NC(=O)Cc1c[nH]c2ccccc12)c1ccccc1 (stereo not given)
 : -7% | -1 | -3% | -1.5%

# New compounds follow.
# Values run as follows: Rango dissoc inh | GLA inh pH 4.5 | miR-21 FLuc | Rango complex inh
- CCN(C(=O)CSc1ncccc1C(=O)O)C1CCCCC1
 : 24% | -11 | -3% | -1.5%
- COc1cc(OC)c(S(=O)(=O)N2CCCCC2)cc1S(=O)(=O)N1CCCCC1
 : 12% | -3 | -4% | -1.9%
- Cc1nnc(NC(=O)Nc2ccc(Cl)c(Cl)c2)s1
 : -3% | 1 | -3% | -2.0%
- COc1cc(CCN2C(=O)N[C@@H](CCc3ccccc3)C(C(C)=O)=C2C)cc(OC)c1OC
 : -7% | -2&-3 | -1% | -0.7%
- Cc1cccc(C)c1NC(=S)N(Cc1cccs1)C1CCCC1
 : 4% | -3 | 4% | 0.5%
- Cc1cnc(C(=O)OCC(=O)c2ccc(Cl)cc2)cn1
 : 0% | · | -5% | 13%
- COc1ccc(NC(=O)N2c3ccccc3CC2C)cc1OC (stereo not given)
 : 2% | -1 | -29% | -0.5%
- O=C(OCc1cnc(Cl)s1)c1ccc(Cl)cc1
 : 15% | -1 | -5% | 1.7%
- CSc1cccc(NC(=O)NCc2cccc(CNC(=O)Nc3cccc(SC)c3)c2)c1
 : -14% | 6 | 18% | -2.1%
